# Screening data (PubChem BioAssay)
# Sa RN4220 lethal: S. aureus RN4220 growth inhibition | 330,000 tested, 0.33% active | AID 1259311 | inhibition, % (no concentration beside the values) | OD600, 16 h;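 active = z-score of -3 or lower and OD600 up to 0.18 on both plates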;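 note: plate controls were untreated cells for no effect and reference antibiotic for full effect; stock transfer was 100 nL into about 80 µL; one replicate is shown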
# Sa ugtP lethal: growth inhibition of S. aureus ugtP deletion strain. S. aureus RN4220 ugtP deletion, OD600 growth, 16 h; some inactives read as strong as hits. growth inhibition, % (no concentration beside the values). 330,000 tested, 0.54% active;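 active = z-score under -3 and OD600 up to 0.15 on both plates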;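 note: plate controls were untreated wells for no effect and antibiotic for full effect; wells of about 80 µL received 100 nL stock; the first replicate is given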
# Mtb hypoxia rep: inhibitors of hypoxia-regulated fluorescent reporter in Mycobacterium tuberculosis. M. tuberculosis hypoxia-regulated fluorescent reporter, fluorescence. fluorescence inhibition, % (test concentration not listed). 300,000 tested, 0.1% active. AID 1159583;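 active = 35 to 45% if threefold the growth effect, above 45% if 1.5-fold the growth effect; inactive = the rest, general growth blockers included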;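 note: wells of about 50 µL received 100 nL stock; 0% = vehicle wells and 100% = reference inhibitor wells; whole bacteria with a GFP reporter of the hypoxia response; strong numbers were not always called active; many hits fall short of the cut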
# Bead autofluor: counter-screen for toxin protease inhibitors: compound fluorescence | fluorescence intensity (no concentration beside the values) | AID 624483 | 360,000 tested, 3.1% active | compound autofluorescence counterscreen, microsphere flow cytometry; hits give high values;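 active = at least 3 SD above the mean of all compounds, about 16000 in these data; inconclusive = too few beads counted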;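 note: 100 nL of 1 mM stock went into each well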
# BJeLR viability: kills HRASV12-expressing BJeLR cells | BJeLR (HRASV12) viability, CellTiter-Glo ATP luminescence, 48 h; reference of the scale not given here | inhibition, % (no concentration beside the values) | 300,000 tested, 0.17% active;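 active = replicate mean above 50%; inconclusive = above 50% but judged a plate artefact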;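 note: 50 nL library stock added to about 25 µL; numbers are from one replicate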
# PrP 5UTR inh: suppresses PrP 5' UTR mRNA reporter expression; cell-based PrP 5' UTR mRNA reporter, plate reader; inhibition, % (test concentration not listed); 340,000 tested, 0.35% active;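 active = every replicate at 50% or more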;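 note: 0 = median of the neutral control wells; tested in H4 reporter cells; numbers are from one replicate; inactives centre near -14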
# Mtb hypoxia rep growth: also measured in Mtb hypoxia rep; calls as there; growth inhibition, %; measured here: M. tuberculosis growth (absorbance);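 0% = vehicle and 100% = reference antibiotic; read after six days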
# The depositor's hits bear a star; ? = inconclusive; / = not tested or not shown. No enrichment for hits. About 4% of those tested had a hit in this group.
SMILES,Sa RN4220 lethal,Sa ugtP lethal,Mtb hypoxia rep,Mtb hypoxia rep growth,Bead autofluor,BJeLR viability,PrP 5UTR inh
CCc1nnc(NC(=O)C2CCCN2C(=O)Nc2ccccc2)s1 (configuration not stated),2.2,14,10,6,2204,-3,-11
C=CCNC(=O)c1sc(=S)n(-c2ccc(C(=O)OCC)cc2)c1N,-3.4,2,-4,-1,8059,4,-4
O=C(c1cccnc1)N1CCN(Cc2ccc3c(c2)OCO3)CC1,0.7,7,/,/,3542,-9,-10
Cc1ccc(S(=O)(=O)NC2(C(F)(F)F)NC(=O)N(C)C2=O)cc1 (configuration not stated),5.9,0,6,10,7810,6,-40
Cc1ccc(S(=O)(=O)N2CCN(C(C)C(=O)Nc3ccccc3-c3ccccc3)CC2)cc1 (configuration not stated),6.0,5,11,7,2490,-9,-11
CC1CCN(CC(=O)Nc2nc(-c3ccccc3)cs2)CC1,-1.4,6,-3,4,3811,12,-10
COc1ccc(-c2nc(C#N)c(NC(C)c3ccccc3)o2)cc1OC (configuration not stated),-9.1,-15,10,9,3389,-2,0
Nn1cc(-c2ccccc2)nc1SCC(=O)N1CCN(S(=O)(=O)c2ccc3ccccc3c2)CC1,5.7,-20,4,7,2255,-2,-30
CCCCN1C(=O)c2ccc(C(=O)N(C)CC(=O)Nc3ccc(OCC)c(OCC)c3)cc2C1=O,6.4,7,15,16,3295,/,-34
O=C(O)Cn1cc(CN2CCOCC2)c2ccccc21,4.6,6,-3,7,3954,-15,-14
C#CCOCCOCCOCCNc1nc(N2CCN(C(=O)C(Cc3ccc(O)cc3)n3cc(CCO)nn3)CC2)nc(N2CCN(C(=O)C(Cc3ccc(O)cc3)n3cc(CCO)nn3)CC2)n1 (configuration not stated),12,14,2,10,/,/,/
Cc1nc2sc(C(c3ccc(Cl)cc3)N3CCOCC3)c(O)n2n1 (configuration not stated),-1.7,0,/,/,4164,-3,-20
CCOc1ccc(C(=O)NCC(=O)NCC(c2ccccc2OC)N2CCCC2)cc1 (configuration not stated),1.3,3,-2,5,12052,2,-34
CC(NC(=O)C1CCCC1)c1ccc(Br)cc1 (configuration not stated),-0.4,2,/,/,3227,-16,-18
O=C(NNC(=S)Nc1ccccc1C(F)(F)F)C1CC1,0.2,2,14,4,5993,8,-24
COc1ccc(CNC(=O)c2ccc(CS(=O)Cc3cccc(Cl)c3)o2)cc1 (configuration not stated),-1.5,1,8,1,4693,4,7
CC(C)CCNC(=O)c1c(CSc2ccc(Cl)cc2)noc1C(=O)NCc1ccccc1,-4.0,-2,1,11,4352,4,-20
CCCN(CC(=O)Nc1ccccc1C)C(=O)c1ccc(N2CCCC2=O)cc1,1.6,3,7,6,5614,/,-15
O=S(=O)(c1ccc(S(=O)(=O)N(Cc2ccc(F)cc2)C2CCCC2)cc1)N1CCCC1,2.0,-2,2,14,2402,3,-12
O=C(NN1CCOCC1)c1ccc(Br)s1,14,7,-4,2,4544,-12,-13
CC(=O)Nc1ccc(OCCOc2ccc(/C=C3/C(=N)N4C=CSC4=NC3=O)cc2)cc1,1.6,19,0,4,2349,3,-13
O=C1CCNCCN1C(CO)Cc1ccccc1 (configuration not stated),2.6,0,-2,-2,/,/,/
O=C(NC(=S)Nc1ncc(Br)cc1Br)c1cncc(Br)c1,16,-30,-11,7,10432,2,-7
CCCN(CCC)S(=O)(=O)c1ccc2c(c1)CCCN2C(C)=O,4.4,5,4,3,3333,2,-10
O=C(Cc1ccccc1)N[C@H](c1ccccc1)P(=O)(O)CO,/,/,/,/,3126,4,1

# More records follow.
SMILES,Sa RN4220 lethal,Sa ugtP lethal,Mtb hypoxia rep,Mtb hypoxia rep growth,Bead autofluor,BJeLR viability,PrP 5UTR inh
CCCN1C(=O)C(=NOCC(=O)NC23CC4CC(CC(C4)C2)C3)c2ccccc21,-3.0,-8,-4,-2,/,/,/
Cc1ccc(CNc2nc(N)c([N+](=O)[O-])c(NCc3ccccc3)n2)cc1,2.9,-1,7,1,2440,-9,-2
O=C(/C=C/c1ccc([N+](=O)[O-])cc1)NCCOc1ccc(F)cc1,-2.1,13,12,2,4519,-2,-33
CC(C)(C)c1cc(C(=O)N/N=C/c2ccccn2)n[nH]1,/,/,/,/,3786,-1,-13
CCOC(=O)C1Cc2c([nH]c3ccccc23)CN1 (configuration not stated),6.2,-6,1,6,4548,-10,-10
Cc1cc(C(=O)N/N=C2\CCCC(=O)C2)c2ccccc2n1,/,/,/,/,2986,-5,-27
Cn1nccc1C(=O)NN=Cc1ccccc1[N+](=O)[O-],2.5,5,-2,-4,/,/,/
COc1ccc2[nH]c(=O)c(CN(C(=O)C(C)C)c3ccccc3OC)cc2c1,1.4,6,5,7,2901,3,-16
NC(=O)CSc1nnc(C2CC2)n1-c1ccccc1,3.4,5,3,5,2346,-7,-17
CC(C)(C)C1CCCCC1NC(=O)c1ccncc1 (configuration not stated),0.0,7,-3,-14,3432,1,-11
CN(C)S(=O)(=O)N1CCN(C(=O)N2CCCCC2)CC1,1.6,4,4,-3,7513,11,-21
Cc1cc(NC(=O)CCC(=O)N(c2ccccc2)C(C(=O)NC(C)(C)C)c2ccccc2Cl)no1 (configuration not stated),4.0,2,-7,2,3822,-5,-1
O=C(O)CC(Cc1ccccc1)C(=O)NCC12CC3CC(CC(C3)C1)C2 (configuration not stated),14,7,8,-1,3509,-5,-8
CC1CCCC(C)N1C(=O)COC(=O)CN1C(=O)c2ccccc2C1=O (configuration not stated),3.5,8,22,6,3734,/,-28
OC(COc1ccccc1)CN1CCCC1 (configuration not stated),-0.3,7,2,3,4563,6,4
O=C(N[C@@H](Cc1ccccc1)C(=O)N1CCN(S(=O)(=O)c2ccc(F)cc2)CC1)c1ccco1,4.8,4,-1,0,5506,/,-18
[O-][N+]12CCN(CC1)c1ccccc12,-0.3,6,9,2,5943,-3,-12
OCCCNC(=S)Nc1ccc2nc(-c3ccccn3)c(-c3ccccn3)nc2c1,5.3,1,3,-3,9819,-11,-5
CCN(c1ccccc1)S(=O)(=O)c1ccc(OC)c(NC(=O)c2ccc(=O)[nH]c2)c1,6.7,10,8,0,2812,/,2
Cn1cnc2c(cnn2C)c1=O,-0.1,3,8,6,2935,/,-11
CC(=O)OCC1OC(ON=CC(C)C(OCc2ccccc2)C(C)C)C(OC(C)=O)C(OC(C)=O)C1OC(C)=O (configuration not stated),6.0,1,-8,-11,/,/,/
COc1ccccc1C(=O)Nc1ccnn1C1CCN(Cc2ccc3nonc3c2)CC1,1.7,8,-2,-8,4662,-4,-16
CCOC(=O)Cn1cnc2sc3c(c2c1=O)CCC3,3.2,-2,6,3,8809,8,-39
CC(Sc1nncs1)C(=O)Nc1ccc2c(c1)OCO2 (configuration not stated),0.6,0,9,1,4631,-6,-20
CC(=O)c1ccc(OCCCC(=O)Nc2ccc3c(c2)OCCO3)cc1,0.4,-2,-2,1,2890,/,0

# The results go on:
SMILES,Sa RN4220 lethal,Sa ugtP lethal,Mtb hypoxia rep,Mtb hypoxia rep growth,Bead autofluor,BJeLR viability,PrP 5UTR inh
O=C(Nc1ccccc1)N1CCCN(c2c(Cl)cncc2Cl)CC1,1.1,-2,1,0,?,-5,-25
O=C(O)COc1ccccc1/C=N/NC(=O)c1ccc(F)cc1,/,/,/,/,5234,-8,4
O=C(c1c(F)cccc1F)N1CCN(c2ccccc2F)CC1,-2.6,8,/,/,2137,-4,-16
Cc1nc(C)n(C(C)CNS(=O)(=O)c2ccc(C)c(C)c2)n1 (configuration not stated),10,8,4,5,4907,-5,-18
COc1ccccc1N(Cc1cc(=O)[nH]c2ccccc12)C(=O)C(C)C,1.0,-4,5,5,4356,3,7
Cc1cccc(N(Cc2ccccc2)C(=O)c2ccc(F)c(S(=O)(=O)N3CCOCC3)c2)c1,5.5,-3,15,5,7289,0,-11
O=C(NN=Cc1ccc([N+](=O)[O-])o1)c1cc(-c2ccc(-c3ccccc3)cc2)nc2ccccc12,28,4,-22,9,/,/,/
O=C(CN1C(=O)CCSc2ccccc21)NC1CCCCC1,1.0,-1,-10,8,5470,8,2
O=C(CSc1nnc(CNC(=O)c2cccs2)o1)Nc1ccccc1,4.5,4,15,0,2085,-1,-5
COc1ccc(-c2csc(Nc3ccc(S(=O)(=O)Nc4cc(C)on4)cc3)n2)cc1C,6.7,20,11,9,4258,-2,7
CCCS(=O)(=O)N1CCCC(C(=O)NCCCN(C)c2ccccc2)C1 (configuration not stated),-17,1,12,6,2623,-4,-25
CCOC(=O)C=CC1CC(c2ccccc2)(c2ccccc2)CO1 (configuration not stated),3.1,9,17,8,/,/,/
C[N+]1(CC(=O)OCCCc2ccccc2)CCCCC1,0.4,3,1,-2,4785,-1,-21
O=C1c2cccc3c([N+](=O)[O-])ccc(c23)C(=O)N1O,/,/,/,/,3559,11,-14
Cc1ccc(CCNC(=O)CNC(=S)N(Cc2ccccc2)Cc2cccnc2)cc1,2.5,-3,-8,7,3113,-8,-2
O=C(NCCCN1CCCC1)C1CCC(=O)N1C1CCCCC1 (configuration not stated),3.8,6,4,-5,6822,-4,-9
Cc1ccc2c3c([nH]c2c1C)-c1nonc1CC3,6.5,0,11,10,2574,-3,-34
NC(=O)NC(CC(=O)NCCc1ccc(S(N)(=O)=O)cc1)c1ccccc1Cl (configuration not stated),2.1,8,-2,1,?,12,-8
COc1ccc(OC)c(S(=O)(=O)Nc2cc3c4c(c2)CCC(=O)N4CCC3)c1,3.7,1,-6,-2,6513,6,-14
CCOC(=O)C(C)Oc1cccc2c(=O)n(CC(=O)NCCc3ccccc3)ccc12 (configuration not stated),-3.8,8,-2,8,5555,1,-70
Cn1c2ccccc2c2cnn(CC(=O)N3CCC4(CC3)OCCO4)c(=O)c21,5.2,6,0,3,/,-9,/
O=C(Nc1cccc2cccnc12)c1ccc(Cl)cc1,4.1,18,6,3,3848,0,-32
C/C(=N\OC(=O)Nc1ccccc1)c1ccc(C)cc1,/,/,/,/,6293,-3,-73
Cc1cc(Br)c(OCc2ccc(C(=O)N/N=C3\CC4CC=CC34)cc2)c(Br)c1 (configuration not stated),/,/,/,/,2171,-8,-16
CC(OC(=O)c1ccccc1N1C(=O)C2C3CCC(C3)C2C1=O)C(=O)c1ccccc1 (configuration not stated),3.8,0,1,10,2097,-13,-7

# Filtered by structure, the compounds so far with a CF3 group.
SMILES,Sa RN4220 lethal,Sa ugtP lethal,Mtb hypoxia rep,Mtb hypoxia rep growth,Bead autofluor,BJeLR viability,PrP 5UTR inh
Cc1ccc(S(=O)(=O)NC2(C(F)(F)F)NC(=O)N(C)C2=O)cc1 (configuration not stated),5.9,0,6,10,7810,6,-40
O=C(NNC(=S)Nc1ccccc1C(F)(F)F)C1CC1,0.2,2,14,4,5993,8,-24

# (list continues)
SMILES,Sa RN4220 lethal,Sa ugtP lethal,Mtb hypoxia rep,Mtb hypoxia rep growth,Bead autofluor,BJeLR viability,PrP 5UTR inh
COc1ccccc1CNC(=O)C1CCN(S(=O)(=O)c2c(C)noc2C)CC1,-1.4,7,/,/,4223,-5,-10
CCn1c(CN2CCN(c3ccc(OC)cc3)CC2)nc2cc(S(=O)(=O)N(C)C)ccc21,/,/,/,/,3500,-10,-11
COc1cc(C2CC(C(F)(F)F)n3ncc(C(=O)O)c3N2)cc(OC)c1OC (configuration not stated),2.7,1,15,8,5472,-8,-23
NS(=O)(=O)c1ccc(NC(=O)CSc2nnc(-c3ccc(O)cc3)o2)cc1,4.9,12,-2,-3,5577,-17,-19
Cc1cc(C(=O)NN=C2CCCC(=O)C2)c2ccccc2n1,0.9,1,1,3,/,/,/
CCCN1C(=S)SC(C)(C)C1/[N+]([O-])=C/c1cccnc1 (configuration not stated),0.9,15,/,/,3373,0,-2
CCN(CC)C(=O)c1ccc(NC(=O)c2ccc(-n3cncn3)c([N+](=O)[O-])c2)cc1,1.8,7,12,3,4422,3,-16
CCOc1ccc(C2C(C(=O)c3ccc(C)o3)=C(O)C(=O)N2c2nc(C)c(C(=O)OC)s2)cc1 (configuration not stated),28,66,7,7,3950,-2,0

# Part of the list above in order of number of heavy atoms, falling:
SMILES,Sa RN4220 lethal,Sa ugtP lethal,Mtb hypoxia rep,Mtb hypoxia rep growth,Bead autofluor,BJeLR viability,PrP 5UTR inh
CCOc1ccc(C2C(C(=O)c3ccc(C)o3)=C(O)C(=O)N2c2nc(C)c(C(=O)OC)s2)cc1 (configuration not stated),28,66,7,7,3950,-2,0
CCn1c(CN2CCN(c3ccc(OC)cc3)CC2)nc2cc(S(=O)(=O)N(C)C)ccc21,/,/,/,/,3500,-10,-11
CCCN1C(=S)SC(C)(C)C1/[N+]([O-])=C/c1cccnc1 (configuration not stated),0.9,15,/,/,3373,0,-2
